RanGTP-Imp inh = disruptors of Ran-importin-beta complex formation – biochemical, FRET, CFP-Ran, YFP-importin-beta, homogeneous, primary screen | cell-free CFP-Ran/YFP-importin-beta FRET ratio | inhibition, % (test concentration not listed) | 1.1% of 300,000 active;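 active = most replicates above 15%; inconclusive = exactly half above 15%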;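 also: 0% = DMSO wells and 100% = Ran loaded with GDP instead of GTP; wells of about 40 µL received 100 nL stock; the first replicate is given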
Beta cell apopt = beta cell apoptosis inhibition | AID 435005 | INS-1E cytokine-induced death, ATP luminescence, 48 h; percent of positive-control rescue, neutral wells zero | 0.8% of 300,000 active | protection from apoptosis, % (concentration not given with the values);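 active = all replicates at 75% or more, or half of them and the mean; inconclusive = half reach 75% but not the mean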;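 also: 0% = cytokine-treated negative control wells and 100% = positive control rescue; higher means more ATP so stronger rescue from cytokine killing; wells of about 40 µL received 100 nL stock; the first replicate is given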
A1 inh = inhibitors of the anti-apoptotic protein A1, read as caspase activation. MEF A1-2A-BIM cells, Caspase-Glo 3/7 luminescence, 3 h; percent of clofoctol response, vehicle zero. caspase activation, % (concentration not given with the values). 0.066% of 330,000 active;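 active = over half of replicate activation scores above 10%, or exactly half above 10 with the replicate mean above 10; inconclusive = replicate mean below 10 yet half the replicates above 10; inactive = over half of replicates below 10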;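 also: wells of about 30 µL received 50 nL stock; many hits fall short of the cut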
T cruzi repl = blocks replication of Trypanosoma cruzi. AID 1885. T. cruzi beta-gal in NIH3T3, luminescence, 90 h. inhibition, % (no concentration beside the values). 1.4% of 300,000 active;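 active = mean inhibition across valid replicates above about 55%, limit read from the data; inconclusive = mean below that limit but half or more replicates reach it; inactive = mean below it, under half of replicates reach it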;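 also: signal also drops with host cell toxicity which is not excluded here; 0% = plate median of DMSO wells and 100% = zero luminescence signal; higher percent means less beta-gal luminescence so fewer parasites; stock transfer was 50 nL into about 50 µL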
MLL AF4-AF9 inh = MLL-AF4/AF9 protein interaction inhibition; AID 651704; inhibition, % at 10 µM; AlphaScreen, biotin-AF4 peptide binding to FLAG-AF9; 0.47% of 350,000 active; P42568;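 active = every replicate reaching a set inhibition limit, whatever the replicate mean, cut at about 25% in these data; inconclusive = mean inhibition reaches that limit but some replicates miss it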;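 also: 0% = plate neutral control median and 100% = total signal loss; the record names both 10 and 1 µM as test concentration; the first replicate is given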
Target sequence (P42568 whole entry, looked up): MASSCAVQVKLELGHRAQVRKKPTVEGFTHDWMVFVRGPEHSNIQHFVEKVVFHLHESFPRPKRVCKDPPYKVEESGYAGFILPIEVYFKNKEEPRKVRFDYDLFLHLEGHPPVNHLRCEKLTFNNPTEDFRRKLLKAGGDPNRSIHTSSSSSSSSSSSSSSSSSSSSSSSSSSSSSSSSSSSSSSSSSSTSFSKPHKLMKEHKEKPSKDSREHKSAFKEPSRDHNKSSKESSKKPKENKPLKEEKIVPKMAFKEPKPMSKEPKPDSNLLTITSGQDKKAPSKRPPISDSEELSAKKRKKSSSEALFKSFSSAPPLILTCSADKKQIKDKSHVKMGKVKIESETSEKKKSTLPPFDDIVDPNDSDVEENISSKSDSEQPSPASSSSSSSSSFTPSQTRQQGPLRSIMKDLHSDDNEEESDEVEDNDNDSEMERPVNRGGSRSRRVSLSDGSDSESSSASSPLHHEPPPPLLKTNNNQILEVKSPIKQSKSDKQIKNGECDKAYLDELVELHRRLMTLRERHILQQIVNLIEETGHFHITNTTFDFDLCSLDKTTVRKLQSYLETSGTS
Ecoli rRNA inh = inhibits bacterial ribosomal RNA function over humanized ribosomes; E. coli WT GFP vs humanized-ribosome RFP mutants, fluorescence, 24 h; hits give low values; DMSO median 0, no signal -100; GFP signal change (wild-type ribosome), % (test concentration not listed); 1.6% of 350,000 active; AID 720706;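 active = significant combined selectivity score with lowered wild-type GFP, culture density cut under 30%, mutant RFP and density less affected; inactive = any of these conditions unmet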; also: one replicate is shown; some compounds called inactive have numbers as strong as hits
Calb FLC = C. albicans growth modulation with fluconazole; C. albicans CaCi-2 (fluconazole-resistant clinical isolate) + fluconazole, Alamar Blue growth, 48 h; growth inhibition, % (concentration not given with the values); 0.57% of 300,000 active;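 active = most replicates above 75%; inconclusive = exactly half above 75%; inactive = most below 75%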;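 also: all wells also contain fluconazole at 8 µg/ml as a sub-toxic cotreatment; 0% = median of DMSO wells and 100% = median of geldanamycin control wells; wells of about 8 µL received 7.5 nL stock; the first replicate is given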
Vif A3G = inhibitors of Vif binding to APOBEC3G peptide, primary screen, biochemical, TR-FRET, GST-Vif 1-94, biotin-A3G peptide, dose response retest (AID 1117319); 0.57% of 260,000 active; inhibition, %; hits with a dose series show IC50 in µM; TR-FRET GST-Vif / biotin-A3G peptide binding; higher % means a stronger effect; test concentration not given here; strong numbers were not always called active;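 active = above the screen mean plus three standard deviations and confirmed in dose response; inconclusive = results disagree or hit not tested in dose response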;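 also: Vif residues 1-94 fused to GST binding biotinylated APOBEC3G peptide 110-148; 0% = full assay without inhibitor and 100% = GST in place of GST-Vif; retest series ran down from 100 µM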
Ecoli rRNA inh OD600 = second read-out of Ecoli rRNA inh, no call of its own (marks repeat the call); OD600 change, %; measured here: OD600 growth;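 optical density of the mix in the first replicate; 0 = DMSO median and -100 = no signal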
Ecoli rRNA inh RFP = further read-out of Ecoli rRNA inh, marked with its call; RFP signal change, %; measured here: RFP humanized mutant strains;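 first replicate; 0 = DMSO median and -100 = no signal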
Numbers without * were called inactive; ? = inconclusive; · = no result given.

SMILES	RanGTP-Imp inh	Beta cell apopt	A1 inh	T cruzi repl	MLL AF4-AF9 inh	Ecoli rRNA inh	Ecoli rRNA inh OD600	Ecoli rRNA inh RFP	Calb FLC	Vif A3G
O=C(Nc1cc(C(F)(F)F)ccc1-n1cncn1)c1ccc(F)cc1Cl	·	-2	0.9	·	-16	0	9	-1.0	·	-9%
CCN1CCN(c2ccc(S(=O)(=O)N3CCOCC3)cc2NC(=O)c2ccc(Cl)cc2Cl)CC1	3.8	4	1.5	45	-1.8	6	6	-1.9	-8	5%
COC(=O)[C@H](CC(C)C)NC(=O)Nc1ccc2c(c1)OCCO2	2.3	0	0.5	-3	0.4	4	1	-6.1	-8	11%
COc1cccc(OC)c1C(=O)Nc1ccc2c(c1)CCCN2S(=O)(=O)c1ccc(C)cc1	7.5	4	-0.3	-1	0.8	-9	0	-1.6	3	·
CCOc1ccc(S(=O)(=O)NCCC(=O)NC2CCC(C)CC2)cc1 (stereo unspecified)	·	-5	-1.2	·	-9.9	-3	8	2.1	·	-4%
COc1cccc(C(=O)NNC(=O)Cc2cccs2)c1	-3.2	-7	-0.1	-15	-0.2	1	-2	-1.8	-1	?
CCN(CCO)C(=O)C(c1ccccc1)c1ccccc1	2.0	-7	0.0	-32	·	·	·	·	5	15%
COc1ccc([C@H]2CC(=O)C=C(c3cc4ccccc4c4ccccc34)C2)cc1	·	2	-0.9	·	0.8	11	18	-0.5	·	·
Oc1ccc(Nc2ncnc3scc(-c4ccccc4)c23)cc1	-1.3	-12	0.2	13	0.8	-4	-18	-5.2	-7	·
Cc1ccccc1OCC(=O)NNC=O	0.6	2	0.1	-22	-5.3	8	15	-0.2	-3	0%
CCN(CC)S(=O)(=O)c1ccc(Cl)c(NC(=O)COc2ccc3c(C)cc(=O)oc3c2)c1	4.1	-3	0.6	-1	-15	6	12	3.1	3	·
C=CCNC(=S)NCCCCC1NC(=S)N(CC=C)C1=O (stereo unspecified)	-2.8	2	0.0	4	-4.0	12	7	-5.0	2	0%
O=C(CCSc1nc(-c2ccco2)cc(C(F)(F)F)n1)N1CCCc2ccccc21	0.0	1	-0.3	7	·	·	·	·	0	6%
O=C(N/C(=C\c1ccc(Br)cc1)C(=O)N1CCOCC1)c1ccccc1Cl	-0.7	-2	0.9	9	0.5	-26	-26	-6.2	4	6%
CC(NCc1cccnc1)c1ccccc1 (stereo unspecified)	-0.8	-6	1.1	2	-5.6	18	12	1.7	0	?
Cc1cc(C)nc(N2CCN(c3nc(C)cc(C)n3)CC2)n1	-2.0	·	·	-1	·	·	·	·	-3	16%
CC1CCC(C(C)C)C(OC(=O)CSc2nc(N)cc(=O)[nH]2)C1 (stereo unspecified)	2.7	-10	0.4	-9	3.9	-39	-42	-17	5	1%
COc1ccc(NC(=O)c2sccc2-n2cccc2)cc1	-2.0	-1	1.6	-4	4.2	-31*	-0.2*	1.0*	16	-9%
COCCN(C(=O)CCC(=O)Nc1cc(C)on1)C(C(=O)NC1CCCC1)c1ccccc1C (stereo unspecified)	-0.8	-19	0.9	2	-1.3	6	5	-11	6	0%
O=C(NC1CCN(Cc2ccccc2)CC1)c1cccc(S(=O)(=O)Nc2ccc(Br)cc2)c1	1.1	10	-0.4	48	5.6	-58	-82	-14	0	-3%
O=C(c1nn2c(C(F)(F)F)cc(-c3ccccc3)nc2c1Cl)N1CCOCC1	-1.4	-20	-0.4	-9	·	·	·	·	13	3%
CCN1C(=O)c2cccc3c(S(=O)(=O)Nc4c(C)n(C)n(-c5ccccc5)c4=O)ccc1c23	3.5	-1	0.4	6	·	·	·	·	-3	2%
COc1ccc(NC(=O)CSc2nnnn2-c2ccc(OC)cc2)cc1	-1.3	-6	1.3	-4	·	·	·	·	-33	-2%
COc1ccc(NC(=O)CCCn2nc(C)c3c(C)n(-c4ccccc4)nc3c2=O)cc1	0.8	-2	1.0	7	-0.7	-3	-2	-0.3	-3	·
COC(=O)CC1(C(=O)OC)Oc2ccccc2C(=O)N1c1ccc(F)cc1F (stereo unspecified)	6.1	-1	1.0	3	-0.8	-5	6	-0.1	-4	·
SMILES	RanGTP-Imp inh	Beta cell apopt	A1 inh	T cruzi repl	MLL AF4-AF9 inh	Ecoli rRNA inh	Ecoli rRNA inh OD600	Ecoli rRNA inh RFP	Calb FLC	Vif A3G
Cc1ccn2cc(CNS(=O)(=O)c3cccs3)nc2c1	1.0	-11	-0.6	-6	-2.9	6	-4	0.8	9	-1%
COc1ccc(/C=C(/NC(=O)c2ccco2)C(=O)Nc2cccc(C(=O)O)c2)cc1	-0.4	0	1.1	3	-1.3	3	6	-1.8	-1	·
Cc1nc(-c2ccccn2)nc(SCC(=O)N2CCOCC2)c1Cl	-12	-7	1.0	-8	1.1	·	·	·	0	·
CCn1c(SCC(=O)N2CCc3ccccc32)nc2c(c1=O)SC(C)C2 (stereo unspecified)	-0.4	6	1.1	14	·	·	·	·	-3	·
O=C(OCCCc1cc2ccccc2c(=O)o1)c1ccco1	·	-7	0.2	·	0.6	-18	-18	-4.4	·	·
CCN(CC)CCC(=O)N1c2ccccc2Sc2ccc(NC(=O)OC)cc21	-3.1	-13	1.4	46	-1.2	-23	-15	-0.3	3	·
O=c1nc(Nc2ccccc2)oc2ccccc12	2.2	4	-6.6	-1	-2.4	-7	7	3.4	-1	-13%
C=CCN(C(=O)Nc1ccc(Cl)cc1)C1CC(=O)N(c2ccc(OC)cc2)C1=O (stereo unspecified)	3.7	5	0.3	-16	·	·	·	·	1	4%
Cc1cc(NS(=O)(=O)c2ccc(NC(=O)COc3ccccc3C(C)(C)C)cc2)no1	1.2	·	-0.1	0	-0.3	·	·	·	-18	5%
COc1cc(C(=O)Nc2cccc(-c3nncn3C)c2)cc(OC)c1OC	-0.5	-1	-0.7	-19	·	·	·	·	5	0%
Cc1nnc(N2CCC(C(=O)NC3CCC(C)CC3)CC2)c2nn(-c3ccc(Cl)cc3)c(C)c12 (stereo unspecified)	4.6	1	0.8	-2	·	·	·	·	2	·
Cc1ccccc1CC(=O)OCC(=O)Nc1ccc(C)c(S(=O)(=O)N2CCCCC2)c1	·	1	0.8	·	0.6	-21	-18	3.6	·	-8%
CSC1=C(C#N)C(C)C2=C(CC(C)(C)CC2=O)N1 (stereo unspecified)	1.2	-4	-0.5	5	·	·	·	·	1	4%
COc1cc(NS(=O)(=O)c2ccc(NC(=O)c3ccc(C)o3)cc2)nc(OC)n1	3.1	6	0.5	-25	·	·	·	·	-1	7%
CCOc1ccccc1NC(=O)NC1(C(=O)NCC2CCCO2)CCCCC1 (stereo unspecified)	-0.5	-3	-0.9	-2	-6.5	6	5	-1.2	-10	3%
CCC(C)C(NC(N)=O)C(=O)Nc1ccc(OCc2ccccc2)cc1 (stereo unspecified)	-6.5	1	-0.6	-14	6.0	8	18	-1.7	-3	32%
Cc1n[nH]c(=O)nc1NCCc1ccccc1	1.8	-2	-0.6	8	·	·	·	·	1	6%
O=[N+]([O-])c1ccc(/C=[N+](\[O-])CCO)o1	-2.1	·	0.0	59*	2.1	-56	-79	-17	58	·
CCCCC(=O)Nc1ccc(C(=O)N2CCCC(C(=O)OCC)C2)cc1 (stereo unspecified)	0.9	-2	-0.2	-17	·	·	·	·	18	26%
COc1ccc(C2CC(c3ccccc3OC(C)=O)=NN2C(C)=O)cc1 (stereo unspecified)	4.8	3	-0.1	3	2.7	5	-3	0.6	15	11%
COc1cccc(-n2nc(C(C)=O)c(=O)[nH]c2=O)c1	-3.2	8	-1.3	28	-0.7	9	0	0.9	-13	10%
CSc1nnc(CCNC(=O)OC(C)(C)C)o1	-0.9	-3	0.8	-9	-4.4	3	-16	-2.4	-11	17%
CC(C)c1ccc(NC(=O)CN2C(=O)NC(C)(C3CC3)C2=O)cc1 (stereo unspecified)	·	2	-0.7	·	0.1	-2	1	2.3	·	-6%
CC1=NOC(=O)/C1=C/c1ccc(O)c(Cl)c1	-0.5	·	1.5	-5	-5.5	9	14	-0.4	-13	-9%
Cc1[nH]c2ccccc2c1CCNC(=O)c1ccc2nccnc2c1	3.4	2	0.6	0	-0.9	1	2	-2.1	1	·
SMILES	RanGTP-Imp inh	Beta cell apopt	A1 inh	T cruzi repl	MLL AF4-AF9 inh	Ecoli rRNA inh	Ecoli rRNA inh OD600	Ecoli rRNA inh RFP	Calb FLC	Vif A3G
Cc1nnc2sc(-c3cccc(NC(=O)c4cccnc4)c3)nn12	1.2	10	-0.2	-5	·	·	·	·	19	6%
COc1ccc(CCNC(=O)C2CCCN(S(=O)(=O)N3CCCCCC3)C2)cc1OC (stereo unspecified)	0.0	1	0.2	6	-4.5	-9	-10	4.1	0	-1%
O=C1/C(=C\c2ccc(Br)o2)Cc2ccccc21	8.6	1	-1.4	-9	·	·	·	·	3	8%
Cc1ccc(C)c(NS(=O)(=O)c2ccc3c(c2)NC(=O)CO3)c1	-0.2	·	·	-1	0.8	-7	-4	1.1	-7	·
CCOc1ccc2nc(SCC(=O)NCc3ccc(OC)c(OC)c3)[nH]c2c1	-2.2	-5	0.5	15	2.1	9	3	1.4	?	-4%
Cc1c(C(=O)N2CCN(Cc3ccc4c(c3)OCO4)CC2)sc2ncnc(N3CCN(c4ccccc4)CC3)c12	2.0	3	0.8	33	0.1	-12	-18	-0.7	-3	·
COc1cccc(CN2CCN(C(=O)c3ccco3)CC2)c1	2.1	-4	-0.4	3	2.4	9	8	0.0	-12	·
Nc1nnc(SCC(=O)Nc2nccs2)s1	0.2	-4	0.9	-3	-3.2	5	2	-2.0	-8	·
Clc1ccccc1C1=CC(c2ccco2)n2nnnc2N1 (stereo unspecified)	0.7	-6	0.6	-18	0.1	·	·	·	-1	-2%
O=C(CN1CCN(Cc2ccccc2)CC1)NCC1COc2ccccc2O1 (stereo unspecified)	-3.6	-10	-0.4	20	·	9	-1	3.3	?	0%
COc1cccc(NC(=O)NC2(C(F)(F)F)Oc3ccccc3O2)c1	2.6	-9	-0.3	3	·	·	·	·	-17	23%
CCOC(=O)c1cccc(NC(=O)CCn2c(=O)oc3ccccc32)c1	-1.1	0	-0.4	13	7.4	3	-30	3.1	7	·
CCOC(=O)c1cnc2c(Cl)cc(Cl)cc2c1NCCCN1CCOCC1	5.6	·	1.0	14	-0.7	-22	-19	-3.9	2	·
Cn1c(=O)[nH]c(=O)c2c1nc(OC(=O)c1ccccc1)n2CC(O)COc1ccccc1 (stereo unspecified)	-0.1	1	-3.6	0	·	·	·	·	-7	5%
CC1Sc2ccc(S(=O)(=O)CCC(=O)N3CCc4ccccc43)cc2NC1=O (stereo unspecified)	-1.1	-7	-0.7	-1	-3.2	-18	-24	3.5	-5	3%
CCCCN(C)C(=O)C1CCN(Cc2ccccn2)CC1	·	-1	2.2	·	·	3	6	-5.5	·	0%
Cc1nc2ccc(S(=O)(=O)N(C)CC(=O)NCc3ccc(N(C)C)cc3)cc2s1	-3.1	4	0.6	12	-0.7	49	4	-4.9	?	·

Only part of the results is shown, so the mix of outcomes need not match the whole.
